CtBP-E1A blk: inhibitors of CtBP/E1A interaction. AlphaScreen GST-E1A/His-CtBP binding, 1536-well; active compounds read low; control for the full effect not named in the record. activity change, % (no concentration beside the values). hit rate 0.49% among 340,000. AID 651724; in the data active means activity change below about -65%; inconclusive means about -30% to -65%; inactive means above about -30%; note: % is set by controls: 0 for no effect and ±100 for the full control effect
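In 5 uL wells, 23 nL compound meets equimolar GST-E1A and His-CtBP (5X stock 125 nM each) for 2 h, 37 °C. Beads (5X, 50 ug/mL) then 1 h, 37 °C, dark.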
TRPV1 PAM: enhances activation of the human vanilloid receptor TRPV1. TRPV1-expressing cells, Fluo-8 calcium influx, capsaicin EC20 potentiation; host cell line not named in the record; control for the full effect not named in the record. potentiation, % at 8.33 µM. Q8NER1. hit rate 0.02% among 320,000; active means potentiation above 80%; inconclusive means 30% to 80%; inactive means below 30%; note: 0% is about no effect
Target sequence (Q8NER1 whole entry, looked up): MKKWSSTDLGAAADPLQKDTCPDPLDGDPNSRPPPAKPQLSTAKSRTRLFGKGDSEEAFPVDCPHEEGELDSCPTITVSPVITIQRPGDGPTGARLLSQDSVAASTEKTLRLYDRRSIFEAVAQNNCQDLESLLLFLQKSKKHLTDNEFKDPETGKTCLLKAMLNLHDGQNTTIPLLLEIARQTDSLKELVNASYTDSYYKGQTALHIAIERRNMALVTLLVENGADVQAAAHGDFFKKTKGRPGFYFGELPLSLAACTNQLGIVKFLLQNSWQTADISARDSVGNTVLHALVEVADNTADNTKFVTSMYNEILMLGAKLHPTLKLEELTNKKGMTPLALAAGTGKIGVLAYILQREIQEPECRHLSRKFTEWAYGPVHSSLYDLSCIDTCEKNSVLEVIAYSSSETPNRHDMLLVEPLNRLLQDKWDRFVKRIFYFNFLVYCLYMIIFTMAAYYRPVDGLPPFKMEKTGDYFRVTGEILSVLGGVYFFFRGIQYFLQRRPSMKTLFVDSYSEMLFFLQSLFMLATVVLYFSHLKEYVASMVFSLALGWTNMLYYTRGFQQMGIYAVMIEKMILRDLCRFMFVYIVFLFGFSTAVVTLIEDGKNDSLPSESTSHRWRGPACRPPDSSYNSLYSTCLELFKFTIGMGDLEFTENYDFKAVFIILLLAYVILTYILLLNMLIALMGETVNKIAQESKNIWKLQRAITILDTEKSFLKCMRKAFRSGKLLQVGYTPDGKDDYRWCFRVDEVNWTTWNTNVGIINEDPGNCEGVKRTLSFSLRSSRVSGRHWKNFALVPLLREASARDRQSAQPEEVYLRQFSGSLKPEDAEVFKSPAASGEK
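Cells expressing TRPV1 were dye-loaded with Fluo-8 and read kinetically: 10 s baseline, 3 min after compound (agonist portion), then 2 min after EC20 capsaicin (allosteric enhancer portion). Calcium-bound dye fluorescence at 480/520 nm.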
Sfp PPTase inh: inhibitors of Bacillus subtilis Sfp phosphopantetheinyl transferase; Q9F4F7; Biochemical Sfp PPTase activity, qHTS; Potency, µM, for inactives: max response, negative = inhibition, usual class: inhibitors; hit rate 3.5% among 310,000; AID 1490; active = well fitted inhibition curve with a large enough effect; inconclusive = small, poorly fitted or top-dose-only effect, or another doubt; inactive = no such curve, though single readings can be large or run the other way;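 note: the enzyme is Sfp with the accession as filed and its product quenches rhodamine fluorescence; potency is the fitted concentration of half-maximal effect; 0% = enzyme reaction without inhibitor and -100% = no enzyme wells; top concentration of the series not given in the record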
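Step 1, compound plus 15 nM Sfp-PPTase, 15 min, room temperature. Step 2, add rhodamine-CoA (5 uM) and BHQ-2-YbbR (12.5 uM). Step 3, read 525/598 nm fluorescence at 0 and 30 min.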
ClpP mod: qHTS Assay for Activators of ClpP | ATP-dependent Clp protease proteolytic subunit (Bacillus subtilis (strain 168)), P80244 | purified B. subtilis ClpP, FRET peptide cleavage, 20 min | Potency, µM (top dose mostly 57.5 µM), without a hit: at the highest dose activity change, negative = active | hit rate 1.9% among 340,000 | AID 651965, 2013; active = well fitted falling curve with a large enough effect; inconclusive = small, poorly fitted or top-dose-only effect; inactive = no such curve, though single readings can be large or run the other way; note: potency is the fitted concentration of half-maximal effect; the source files actives as falling curves though it sought activators and does not explain the sign; nearly all actives have a fitted effect of over 65% in size; many hits overshoot -100%
Target sequence (P80244 whole entry, looked up): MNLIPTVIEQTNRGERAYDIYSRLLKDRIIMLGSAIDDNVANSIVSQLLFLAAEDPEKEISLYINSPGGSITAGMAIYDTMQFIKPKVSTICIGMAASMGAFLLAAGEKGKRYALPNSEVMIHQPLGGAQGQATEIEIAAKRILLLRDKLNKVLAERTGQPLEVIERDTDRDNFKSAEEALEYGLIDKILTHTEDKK
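Purified B. subtilis ClpP, 10 microg/mL final in Tris/HCl pH8 with KCl, BSA, glycerol and Tween-20, cleaved an Abz/nitrotyrosine-quenched decapeptide. Fluorescence (ex 320, em 430) was read at 0 and 20 min at room temperature. Delta was normalized to 5.8 microM ADEP and DMSO/no-enzyme controls.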
gsp antagonist: antagonizes gsp, the McCune-Albright syndrome mutation. hit rate 0.4% among 340,000. Potency, µM (titrated, usually from 76.9 µM), without a hit: at the top dose activity change, negative = inhibition, usual class: inhibitors. gsp-mutant cells, cAMP HTRF, 30 min; control for the full effect not named in the record; active = falling curve of any shape with a large fitted effect; inconclusive = falling curve, mostly with a smaller effect; inactive = flat or rising curve; cell line not stated here;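 note: intracellular cAMP measured with PDE inhibitor Ro 20-1724 present during compound exposure; potency is the fitted concentration of half-maximal effect; % is set by controls: 0 for no effect and ±100 for the full control effect; nearly all actives have a fitted effect of over 65% in size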
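G418-selected cells were plated in DMEM/10% FBS for 16-24 h at 37C, then treated with compounds plus the PDE inhibitor […] (300 uM solution added) for 30 min at 37C. Intracellular cAMP was measured by HTRF after 30 min lysis at room temperature.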
gsp ag: gsp mutant agonism; gsp mutant cells, cAMP HTRF, 30 min; control for the full effect not named in the record; Potency, µM (doses to about 76.9 µM), for the others: top-dose activation (cAMP increase), usual class: activators; hit rate 0.13% among 340,000; active = well fitted activation curve with a large enough effect; inconclusive = small, poorly fitted or top-dose-only effect, or another doubt; inactive = no such curve, though single readings can be large or run the other way; cell line not stated here;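 note: phosphodiesterase inhibitor Ro 20-1724 added with compounds to block cAMP breakdown; potency is the fitted concentration of half-maximal effect; nearly all actives have a fitted effect of over 60% in size; about a fifth of the inactives were tested at one dose only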
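Cells in DMEM/10% FBS with G418 were pretreated with compounds in DMSO plus […] (300 uM stock) for 30 min at 37C. cAMP was measured by HTRF (cAMP-d2 plus anti-cAMP antibody-K) after 30 min at room temperature.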
Menin MLL FP FL: displaces fluorescein MLL peptide from human menin | FP activity change, % at 61.4 µM | Fluorescence polarization, fluorescein-MLL peptide displacement from menin | 290,000 tested, under 10 active | AID 1766; inconclusive = falling polarisation curve, or a change in total fluorescence; inactive = total fluorescence flat and polarisation flat or rising; no compound was filed as active; the % refers to the polarisation; negative = inhibition;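 note: % of control where 0% means no effect; inhibitors lower the polarisation; unlabelled MLL peptide was the positive control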
Active calls of the source: *; ? = inconclusive; . = not tested or not shown; [ ] = dose if it differs, or a comment. Not all compounds are listed. The share of hits here may be higher or lower than overall.

SMILES	CtBP-E1A blk	TRPV1 PAM	Sfp PPTase inh	ClpP mod	gsp antagonist	gsp ag	Menin MLL FP FL
COC(=O)C1=C(c2cc3ccccc3s2)C[C@@H]2CC[C@H]1N2C(=O)NC(C)C	-18	.	.	-3.3%	-6%	21%	.
Clc1ccc2sc(C3CCNCC3)nc2c1	-6	0	-5%	-2.0%	10%	19%[15.4 µM]	4.9
N=C1c2ccccc2CN1NC(=O)c1ccc(F)cc1	6	5	15%	0.1%	3%	-49%[inhibitor]	-0.7
COc1cc2c(cc1OC)C13CCN4CC5=CCOC6CC(=O)N2C1C6C5C3C4 (stereo unspecified) (tested in a mixture with another compound)	1	.	.	.	7%	-14%	.
S=C(N1CCCCCC1)N1CC1	-3	.	.	-2.6%	8%	-4%[15.4 µM]	.
CC(C)NS(=O)(=O)c1ccc(OCC(=O)N2CCN(Cc3ccc4c(c3)OCO4)CC2)c(Cl)c1	-3	0	-10%	-2.3%	?	14%	2.9
CC1CCCCN1CCNS(=O)(=O)c1ccc2c(c1)oc(=O)n2C (stereo unspecified)	3	-8	11%	1.7%	-3%	-20%	-1.5
O=C(OCc1ccc(Cl)c(Cl)c1)c1ccccn1	7	-2	10%	-2.0%	0%	8%	4.2
CN1CCN(c2cc(N3CCCC3)c([N+](=O)[O-])cc2F)CC1	-11	4	24%	0.9%	9%	-7%	0.3
CN1CCN(c2cc(N3CCCCCC3)c(F)cc2[N+](=O)[O-])CC1	-25	6	3%	12%	12%	2%[15.4 µM]	7.0
O=c1[nH]c(=S)[nH]c(O)c1N=Nc1ccc(-c2ccccc2)cc1[N+](=O)[O-]	.	8	79µM*	.	.	.	9.9
CN1CC=C(c2c[nH]c3ccccc23)CC1	6	-17	10%	-22%	5%	-18%	0.1
CC(=O)c1ccc(OC(NC(=O)c2ccco2)C(Cl)(Cl)Cl)cc1 (stereo unspecified)	6	-3	16%	0.2%	11%	17%	-0.2
CCCCCCC(=O)N/N=C/c1c(O)n(C2CC2)c(=S)[nH]c1=O	1	-10	35%[activator]	0.9%	12%	-9%[15.4 µM]	1.1
COc1cc(/C=C/c2nc3ccccc3c(=O)n2-c2cccc(O)c2)ccc1O	-1	3	0%	.	-14%	-1%[15.4 µM]	?
CCN(CC)CCO	-3	1	.	1.0%	-3%	.	.
O=C(CN1CCOCC1)Nc1ccc(Br)cc1C(=O)c1ccccc1	-20	-4	7%	-2.3%	-9%	-11%	0.2
c1ccc(CN2CCN(Cc3ccc4c(c3)OCCO4)CC2)cc1	-10	4	0%	-1.9%	-4%	-3%	1.5
COc1ccc(-c2nc3ccccc3c(=O)n2-c2nccs2)cc1	-1	0	-2%	-0.2%	4%	0%	-2.8
COc1ccc(NP2(=O)NCCCN2)cc1	5	.	.	.	14%	12%	.
COc1ccccc1[As](=O)(O)CC(O)COc1ccc(Cl)cc1Cl (stereo unspecified)	.	-3	3%	.	.	.	25
Cc1cc(C(=O)OCC(=O)Nc2cccc(F)c2)c(C)n1C1CC1	2	-15	.	0.7%	-8%	-4%	.
OC(c1ccncc1)(c1ccc(F)cc1)c1ccc(F)cc1	12	-4	17%	0.7%	12%	-28%	0.2
COc1ccc(Cn2c(N)c(C(=O)NCc3ccco3)c3nc4ccccc4nc32)cc1OC	7	4	?	32µM*	1%	-16%	16
C=CCn1c(O)c(C(C)=NC2CCN(Cc3ccccc3)CC2)c(=O)[nH]c1=O	-13	-3	13%	-0.1%	-10%	-19%	-1.5
CCN(CC)CCN=Cc1c(O)n(CCc2ccccc2)c(=O)[nH]c1=O	-7	.	12%	-0.7%	13%	3%	20
Oc1ccccc1CN(CCc1ccccc1)Cc1ccccc1	81	-21	?	-0.7%	10%	-36%[inhibitor]	7.2
COc1cc(OC)c(OC)cc1/C=C1\C(=O)NC(=O)N(Cc2ccccc2)C1=O	12	4	-14%	.	3%	-1%[15.4 µM]	4.2
C=CCOC(=O)N1Cc2ccccc2-n2nncc2C1	-20	.	.	-1.9%	.	-6%	.
CC(=NC1CCN(Cc2ccccc2)CC1)c1c(O)n(C)c(=O)n(C)c1=O	-4	-8	8%	-3.6%	6%	3%	-1.1
CC(C)CCN1CCN(Cc2c(F)cccc2Cl)CC1CCO (stereo unspecified)	.	-3	15%	0.1%	15%	-51%	2.3
CCOP(=O)(Cc1ccc(C(=O)CC)o1)OCC	3	-8	16%	.	8%	-2%[15.4 µM]	2.3
C[C@]12CCC3C(CC[C@H]4C[C@@H](O)CC[C@]34C)C1CC[C@@H]2OC(=O)[C@H](N)CCCCN (stereo partly specified)	0	.	.	.	11%	-5%	.
N#Cc1ccccc1Cn1cc(C(=O)c2cccs2)c2ccccc21	-8	-2	9%	-8.6%	-7%	6%	1.2
COc1ccc(CC(C)NCCC(c2ccccc2)c2ccccc2)cc1 (stereo unspecified)	.	4	2%	-1.0%	0%	-48%[inhibitor]	0.7
Cc1cccc(N2C(=O)NC(=O)/C(=C\c3cnn(-c4ccccc4)c3)C2=O)c1	-3	27	40µM*	-25%	3%	12%	13
N#Cc1c(/N=C/c2c(O)n(Cc3ccco3)c(=O)[nH]c2=O)sc2c1CCCC2	-21	.	79µM*	-2.8%	-5%	-8%	?
COc1ccc(-c2n[nH]c(=S)n2-c2ccc3c(c2)OCCO3)cc1OC	.	-3	?	?	-5%	29%	2.2
O=c1c2ccccc2nc(-c2ccco2)n1-c1nccs1	-2	-8	10%	-28%	19%	-3%	8.6
Oc1ccc2ccccc2c1CN1CC=C(c2ccccc2)CC1	-7	9	12%	.	.	-3%[15.4 µM]	0.7
COC(=O)C1=C(c2ccc(OCc3ccccc3)cc2)C[C@@H]2CC[C@H]1N2C(=O)NCc1cccc(C(F)(F)F)c1	-10	-5	.	-2.4%	-4%	.	.
COc1ccc(NC(c2ccccc2F)P(=O)(Oc2ccccc2)Oc2ccccc2)cc1 (stereo unspecified)	.	-2	24%	-0.4%	-9%	-31%[inhibitor]	3.0
c1ccc(C2CN3CCC2CC3)cc1 (stereo unspecified)	5	-3	8%	.	2%	-7%[15.4 µM]	0.5
Cc1ccccc1NC(=S)NC(NC(=O)CF)C(Cl)(Cl)Cl (stereo unspecified)	2	-9	14%	.	-3%	-7%[15.4 µM]	0.3
COc1ccc(OC)c(-n2c(O)c(/C=C3\C=Nc4ccccc43)c(=O)[nH]c2=O)c1	3	0	50µM*	.	-9%	-3%	11
Cc1c2cnn(CC(=O)N3CCC4(CC3)OCCO4)c(=O)c2c(C)n1Cc1ccccc1Cl	-2	-6	-9%	-8.3%	0%	-3%	-3.3
CCOC(=O)C1C2c3ccccc3O[C@@]1(C)N=C1SCC(=O)N12 (stereo partly specified)	-2	6	-3%	-2.0%	2%	7%	-0.4
COc1ccc(Oc2c(C)oc3cc(OC(=O)N(C)C)ccc3c2=O)cc1	1	16	13%	-3.8%	-16%	17%	1.3
CC1=C(C(=O)Nc2ccccc2)S(=O)(=O)CCO1	-3	0	19%	-0.8%	5%	15%[15.4 µM]	2.6
CC(Cc1ccccc1)NC(=O)/C=C/c1ccc(Cl)cc1 (stereo unspecified)	12	-21	-13%	-15%	?	5%	0.8
CC1=C(C)CC2(CC1)C(=O)NC(=O)NC2=O	8	.	.	2.0%	14%	-52%[inhibitor]	.
COC(=O)C1=C(c2c(C)noc2C)C[C@@H]2CC[C@H]1N2C(=O)NCCOc1ccc(OC)cc1	5	8	.	-5.1%	7%	-16%	.
Cc1oc(/N=C/c2ccc3c(c2)OCO3)c(C#N)c1C	5	-9	9%	-3.8%	12%	2%	?
C=C1C(O)(c2ccccc2)C2CC[N+]1(C)CC2 (stereo unspecified)	14	-7	-1%	0.5%	-4%	-49%[inhibitor]	3.6
Fc1cccc(F)c1-c1nc(-c2ccc(Cl)cc2)no1	15	2	-25%	.	-2%	15%	-1.8
Cc1ccc(Sc2ccc(C=C3C(=O)N(C)C(=O)N(C)C3=O)o2)cc1	8	3	8.9µM*	-5.7%	5%	-3%[15.4 µM]	2.4
COc1cccc(CNC(=O)c2cccc(S(=O)(=O)N3CCN(C)CC3)c2)c1	9	-15	13%	-4.1%	6%	-64%[inhibitor]	-1.2
c1ccc(NC2=Nc3ccccc3CC2)cc1	-1	0	6%	0.6%	13%	-29%	-1.2
O=c1c2ccccc2nc(-c2ccccc2Cl)n1-c1ccc(O)cc1	-7	-16	10%	-1.0%	0%	17%[15.4 µM]	-1.4
O=c1[nH]c(SCc2n[nH]c(=S)n2-c2ccccc2)nc2ccccc12	-12	5	8%	-0.9%	-2%	?	3.1

Retrieved by compound from above, two records:
SMILES	CtBP-E1A blk	TRPV1 PAM	Sfp PPTase inh	ClpP mod	gsp antagonist	gsp ag	Menin MLL FP FL
COc1ccc(Cn2c(N)c(C(=O)NCc3ccco3)c3nc4ccccc4nc32)cc1OC	7	4	?	32µM*	1%	-16%	16
Oc1ccccc1CN(CCc1ccccc1)Cc1ccccc1	81	-21	?	-0.7%	10%	-36%[inhibitor]	7.2

(further entries)
SMILES	CtBP-E1A blk	TRPV1 PAM	Sfp PPTase inh	ClpP mod	gsp antagonist	gsp ag	Menin MLL FP FL
CNC(=O)O/N=C(\N)Cc1csc2ccccc12	4	?	8%	.	4%	1%	-6.1
CCC(C)n1c(O)c(/C=N/N2CCOCC2)c(=O)[nH]c1=S (stereo unspecified)	0	4	25%	1.0%	-6%	6%[15.4 µM]	.
C/C(Cl)=C/CC1(CN2CCCC2=O)C(=O)NC(=O)NC1=O	5	1	7%	0.1%	1%	-35%	2.3
C=C1N2CCC(CC2)C1(O)c1ccc(C)cc1 (stereo unspecified)	1	2	19%	0.1%	10%	1%	2.5
CN(CC=CCN(C)P(=S)(N1CC1)N1CC1)P(=S)(N1CC1)N1CC1	-3	.	.	0.3%	11%	-10%	.
CCN(CC)c1ccc(/C=C2\C(=O)NC(=S)N(C)C2=O)o1	2	-17	-10%	.	-18%	-10%	?
CC(C)N1C(=O)/C(=C/C=C/c2ccco2)C(=O)N(Cc2ccco2)C1=O	11	13	-81%	-22%	?	-14%	?

Screens (PubChem BioAssay)
